Sa RN4220 lethal – kills Staphylococcus aureus RN4220; AID 1259311; S. aureus RN4220 growth, OD600, 16 h; 330,000 tested, 0.33% active; inhibition, % (test concentration not listed);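 active = z-score of -3 or lower and OD600 up to 0.18 on both plates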;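 also: plate controls were untreated cells for no effect and reference antibiotic for full effect; stock transfer was 100 nL into about 80 µL; one replicate is shown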
Mtb hypoxia inh – Mtb hypoxia fluorescent reporter inhibition; M. tuberculosis hypoxia-regulated fluorescent reporter, fluorescence; fluorescence inhibition, % (no concentration beside the values); 300,000 tested, 0.1% active; AID 1159583;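 active = 35 to 45% if threefold the growth effect, above 45% if 1.5-fold the growth effect; inactive = the rest, general growth blockers included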;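 also: wells of about 50 µL received 100 nL stock; 0% = vehicle wells and 100% = reference inhibitor wells; whole bacteria with a GFP reporter of the hypoxia response; strong numbers were not always called active; many hits fall short of the cut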
Bead autofluor – compound fluorescence in toxin protease inhibitor counterscreen | compound autofluorescence counterscreen, microsphere flow cytometry; stronger effect = higher value | fluorescence intensity (no concentration beside the values) | 360,000 tested, 3.1% active;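 active = at least 3 SD above the mean of all compounds, about 16000 in these data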;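 also: 100 nL of 1 mM stock went into each well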
PrP 5UTR inh – inhibition of PrP 5' UTR reporter expression | cell-based PrP 5' UTR mRNA reporter, plate reader | inhibition, % (test concentration not listed) | 340,000 tested, 0.35% active | AID 488862;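 active = every replicate at 50% or more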;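 also: 0 = median of the neutral control wells; tested in H4 reporter cells; numbers are from one replicate; inactives centre near -14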
ugtP null kill – kills S. aureus RN4220 lacking UgtP; growth inhibition, % (concentration not given with the values); 330,000 tested, 0.54% active; S. aureus RN4220 ugtP deletion, OD600 growth, 16 h; some inactives read as strong as hits;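 active = z-score under -3 and OD600 up to 0.15 on both plates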;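 also: plate controls were untreated wells for no effect and antibiotic for full effect; wells of about 80 µL received 100 nL stock; the first replicate is given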
BJeLR lethal – kills HRASV12-expressing BJeLR cells; BJeLR (HRASV12) viability, CellTiter-Glo ATP luminescence, 48 h; reference of the scale not given here; inhibition, % (concentration not given with the values); 300,000 tested, 0.17% active;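 active = replicate mean above 50%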;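 also: 50 nL library stock added to about 25 µL; numbers are from one replicate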
Mtb hypoxia inh growth – also measured in Mtb hypoxia inh; calls as there; growth inhibition, %; measured here: M. tuberculosis growth (absorbance);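 0% = vehicle and 100% = reference antibiotic; read after six days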
Active calls of the source: *; x = not tested or not shown. Rows were taken by chance (roughly 4% active in at least one column).

SMILES	Sa RN4220 lethal	Mtb hypoxia inh	Mtb hypoxia inh growth	Bead autofluor	PrP 5UTR inh	ugtP null kill	BJeLR lethal
COc1cc(C(=O)OCC(=O)NC2CCS(=O)(=O)C2)c([N+](=O)[O-])cc1OC (stereo unspecified)	-5.1	-1	5	4575	-20	-6	4
CCN(CC)c1ccc2c(C)c(CN3CCOCC3)c(=O)oc2c1	7.2	4	10	4695	-28	4	11
CC1CCCC(C)N1C(=O)Cn1c(SCC(=O)NCc2ccc3c(c2)OCO3)nc2ccccc21 (stereo unspecified)	4.1	1	-2	8712	-14	-6	-9
CC/C(=N\NC(=O)C1CCCC1)c1ccc(Br)cc1	x	x	x	6038	-6	x	4
N#Cc1ccc(CN2CCN(C(=O)CNS(=O)(=O)c3ccc4c(c3)OCCCO4)CC2)cc1	4.7	-1	0	2931	-3	8	x
Cc1ccc(S(=O)(=O)Cc2nc3ccccc3c(=O)[nH]2)cc1	-1.0	-5	8	3202	-19	-2	10
Cc1ccc(/C=C/C(=O)c2ccccc(=O)c2O)cc1C	7.4	4	0	2566	-6	-1	37
Cc1nc2ccc(Br)cc2c2c1CC(CO)O2 (stereo unspecified)	6.4	5	17	3939	-7	-3	-2
COc1ccc(N2CC(C(=O)Nc3cc(C)ccn3)CC2=O)cc1 (stereo unspecified)	3.1	13	3	3373	-18	-2	-4
Cc1cc(C)n(C2CC(=O)N(c3ccc(Cl)c(Cl)c3)C2=O)n1 (stereo unspecified)	-2.1	2	-7	3742	-13	3	-3
CCCN1C(=O)c2ccc(C(=O)NCc3ccco3)cc2C1=O	-8.1	-1	3	23188*	-9	-6	1
CCOC(=O)c1c(C)nc2sc3c(=O)n(-c4ccc(OC)cc4)cnc3c2c1-c1ccc(OC)cc1	4.5	3	7	3316	-21	-4	7
CN1/C(=C/C(=O)c2ccc(Cl)cc2)Sc2cc3c(cc21)OCO3	0.5	5	-2	2510	-98	-4	-7
CCOC(=O)c1cc(=O)n2nc(-c3ccccc3F)nc2s1	2.9	1	-5	4648	-16	3	-18
CCOC(=O)c1nnn(-c2nc(N3CCCC3)nc(N3CCCC3)n2)c1-c1ccccc1	2.5	11	5	8554	-26	0	-5

Structural class, those above containing a carbonyl joined to an NH by a bond outside any ring (5)
SMILES	Sa RN4220 lethal	Mtb hypoxia inh	Mtb hypoxia inh growth	Bead autofluor	PrP 5UTR inh	ugtP null kill	BJeLR lethal
COc1cc(C(=O)OCC(=O)NC2CCS(=O)(=O)C2)c([N+](=O)[O-])cc1OC (stereo unspecified)	-5.1	-1	5	4575	-20	-6	4
CC1CCCC(C)N1C(=O)Cn1c(SCC(=O)NCc2ccc3c(c2)OCO3)nc2ccccc21 (stereo unspecified)	4.1	1	-2	8712	-14	-6	-9
CC/C(=N\NC(=O)C1CCCC1)c1ccc(Br)cc1	x	x	x	6038	-6	x	4
COc1ccc(N2CC(C(=O)Nc3cc(C)ccn3)CC2=O)cc1 (stereo unspecified)	3.1	13	3	3373	-18	-2	-4
CCCN1C(=O)c2ccc(C(=O)NCc3ccco3)cc2C1=O	-8.1	-1	3	23188*	-9	-6	1

The results go on:
SMILES	Sa RN4220 lethal	Mtb hypoxia inh	Mtb hypoxia inh growth	Bead autofluor	PrP 5UTR inh	ugtP null kill	BJeLR lethal
CCCc1cc(=O)n2[nH]c(NCc3ccccc3F)nc2n1	1.4	0	0	4488	-16	3	-3
Cc1cccc(OCCCC(=O)NNC(=O)c2ccc(F)cc2)c1	3.5	9	10	3780	-9	5	x
O=C(NNc1nc(-c2ccccc2)c2cc(Br)ccc2n1)c1ccc(S(=O)(=O)N2CCOCC2)cc1	3.3	7	1	7626	14	-3	-8
CCN1C(=O)N(CC)c2cccc3cccc1c23	7.7	4	2	4234	-6	-3	4
Cc1ncc(CO)c(/C=N/NC(=O)c2cc(Br)ccc2O)c1O	x	x	x	4103	-14	x	-7
CCOc1ccc2nc(SCC(=O)Nc3cc(C)on3)c(C)cc2c1	2.8	7	-5	2854	-23	7	0
O=C(Nc1cccc(Cl)c1)c1ccc(-n2cncn2)c([N+](=O)[O-])c1	-4.4	9	15	6123	-21	-1	-3
CCN(c1ccccc1)S(=O)(=O)c1ccc2[nH]cc(C(=O)NCCOC)c(=O)c2c1	11	9	7	3238	-11	6	7
O=C(COc1cccc(Br)c1)NN=CC(=O)c1ccccc1	7.6	9	1	x	x	-6	x
O=C(Cn1nc(-c2ccccc2)c2ccccc2c1=O)NCCO	5.5	8	3	3629	-14	-1	-6
CCOP(=O)(OCC)C(NC(=O)Nc1c(C)cc(C)cc1C)c1ccccc1 (stereo unspecified)	7.8	3	5	4676	-8	6	-9
Cc1n[nH]c(=S)n1-c1cccc(Cl)c1	4.3	15	5	2097	-22	1	4
O=C(OCC(=O)N1CCOCC1)c1ccc[nH]c1=O	8.1	15	9	5743	-22	0	0
COc1ccc(C(=O)c2c[nH]cc2-c2ccccc2)cc1	6.7	11	7	2121	-15	4	-23
CCOC(=O)CSc1nc2sc(C)c(C)c2c(=O)[nH]1	5.2	x	x	2914	-11	1	2
COc1ccc(-c2nn(-c3ccccc3)cc2C=NNc2ccccn2)cc1	4.6	13	10	x	x	6	x
Cc1nn(C(=O)CCC(=O)NCc2cccc(F)c2)c2ccccc12	-0.3	-5	-4	5620	-7	-1	16
NC(=O)CSc1nnc(Cc2cccs2)n1C1CCCCC1	6.7	-6	-3	19288*	-24	-10	x
COc1ccc(CCNC(=O)c2cc3c(=O)n4cccc(C)c4nc3s2)cc1OC	1.5	-3	6	5149	-26	13	-9
CSc1ccc(/C=N/N2CCN(Cc3ccccc3Cl)CC2)cc1	x	x	x	4789	-16	x	1
O=C1c2ccccc2C2NC(=O)C3(CCCCC3)N12 (stereo unspecified)	-0.1	1	10	8861	-11	1	5
CC(=O)O[C@H]1C2OC(=O)C(C)=C2[C@@H]2OC(=O)[C@]3(CCC4OC41C)OC23 (stereo partly specified)	x	x	x	4016	-19	x	-4
O=C(Nc1cccc(C(=O)Nc2ccc(Cl)cn2)c1)c1ccccc1	3.5	0	1	3388	-25	-4	9
Cc1ccsc1C(=O)OCC(=O)NCC1CCCO1 (stereo unspecified)	-17	7	-2	2974	-27	-5	4
CSC1=NC(C)(C)C=C(/C=C/c2ccc(Cl)cc2Cl)N1	-5.6	4	7	4456	-22	-14	-7
Cc1ccc([C@@H]2[C@@H]3C(=O)N(c4ccccc4)C(=O)[C@@H]3[C@]3(Cc4ccccc4)C(=O)N(CC4CC4)CC(=O)N23)o1	x	x	x	2952	-29	x	-3
CCOc1cc(CNCCCN2CCOCC2)ccc1OCC(=O)Nc1cccc2ccccc12	2.9	6	7	15625	-2	-6	2
COc1ccc(S(=O)(=O)N2CCOCC2)cc1NC(=O)COc1ccc(C(C)=O)cc1OC	-3.6	-1	-4	5104	-7	2	x
Clc1cccc(Cl)c1Cn1cnc2c(N3CCCCCC3)ncnc21	6.4	4	2	12418	-24	14	2
CCN(CC)S(=O)(=O)c1ccc2c(c1)nc(-c1ccccn1)n2C	3.6	0	-1	3212	-15	8	-2

By substructure: the entries above containing a Cl atom
SMILES	Sa RN4220 lethal	Mtb hypoxia inh	Mtb hypoxia inh growth	Bead autofluor	PrP 5UTR inh	ugtP null kill	BJeLR lethal
Cc1cc(C)n(C2CC(=O)N(c3ccc(Cl)c(Cl)c3)C2=O)n1 (stereo unspecified)	-2.1	2	-7	3742	-13	3	-3
CN1/C(=C/C(=O)c2ccc(Cl)cc2)Sc2cc3c(cc21)OCO3	0.5	5	-2	2510	-98	-4	-7
O=C(Nc1cccc(Cl)c1)c1ccc(-n2cncn2)c([N+](=O)[O-])c1	-4.4	9	15	6123	-21	-1	-3
Cc1n[nH]c(=S)n1-c1cccc(Cl)c1	4.3	15	5	2097	-22	1	4
CSc1ccc(/C=N/N2CCN(Cc3ccccc3Cl)CC2)cc1	x	x	x	4789	-16	x	1
O=C(Nc1cccc(C(=O)Nc2ccc(Cl)cn2)c1)c1ccccc1	3.5	0	1	3388	-25	-4	9
CSC1=NC(C)(C)C=C(/C=C/c2ccc(Cl)cc2Cl)N1	-5.6	4	7	4456	-22	-14	-7
Clc1cccc(Cl)c1Cn1cnc2c(N3CCCCCC3)ncnc21	6.4	4	2	12418	-24	14	2

Later entries.
SMILES	Sa RN4220 lethal	Mtb hypoxia inh	Mtb hypoxia inh growth	Bead autofluor	PrP 5UTR inh	ugtP null kill	BJeLR lethal
Cc1nn(CC(=O)N2CCC3(CC2)OCCO3)c(=O)c2cc3ccccc3n12	-0.3	2	3	5630	-13	5	-11
CCCCC(=O)NC(c1ccc(OC)c(OC)c1)c1c(O)ccc2ccccc12 (stereo unspecified)	-1.1	1	4	7962	-19	8	-3
O=C(NCc1ccco1)c1ccccc1NS(=O)(=O)c1cccs1	6.8	3	3	19002*	-59	4	-4
CC(C)NC(=O)C1COc2ccccc2O1 (stereo unspecified)	4.0	18	7	2284	-30	6	-4
O=C(NN=Cc1ccccn1)c1cccc([N+](=O)[O-])c1	1.2	1	16	x	x	-1	x
COC(=O)C1=C(C)N(Cc2ccco2)C(=O)/C1=C\c1ccc([N+](=O)[O-])cc1	2.3	8	5	5828	-10	10	12
CCCCN(C)C(=O)c1nc2ccccn2c1CNCCCn1nnc2ccccc21	13	10	6	4057	-7	4	-12
CCN(C(=O)C(C)N1C(=O)/C(=C/c2cccs2)SC1=S)C1CCS(=O)(=O)C1 (stereo unspecified)	1.6	12	7	4292	-20	-8	3
O=C(CCc1ccccc1)NN1C(=O)C2C3C=CC(C3)C2C1=O (stereo unspecified)	2.6	17	10	3452	-37	5	4
Cc1c(C=C(C#N)c2ccc([N+](=O)[O-])cc2)c(=O)n(-c2ccccc2)n1C	3.8	0	10	3768	-3	2	x
O=C(O)/C(=C\c1cccs1)c1ccccc1	2.8	8	4	3598	-8	5	-3
COc1ccccc1/C=C/C=NNC(=O)Cc1cccs1	1.2	5	17	x	x	-6	x
CS(=O)(=O)N1CCC(C(=O)NNC(=O)Nc2ccc(F)c(Cl)c2)CC1	5.2	-9	-10	x	-2	12	0
O=C(CCC1CCCC1)Nc1ccon1	5.7	8	7	9687	-38	3	-10
